From PubChem
NPYLR7 ag: agonists of mosquito NPYLR7 receptor, primary screen, cell-based, Aedes aegypti, calcium fluorescence, mosquito biting behavior | 270,000 tested, 0.15% active | AID 1259423, 2018 | Aedes aegypti neuropeptide Y-like receptor 7 (NPYLR7) | activation, % at 10 µM | HEK293T NPYLR7/Galpha15, GCaMP6s calcium fluorescence; in the data active = activation above about 40%;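 also: 0% = vehicle and 100% = reference agonist at the receptor; some compounds past the cut are filed as inactive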
NPYLR7 ag max-min: further read-out of NPYLR7 ag, marked with its call; activation, %; measured here: Max-Min RFU normalised activation; some inactives read as strong as hits;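 span of the calcium signal over five minutes; 0% = vehicle and 100% = native peptide agonist; compound fluorescence can raise it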
An asterisk follows results filed as active; & = joins results of further samples. Some of the compounds tested, so the mix of outcomes need not match the whole.

Screens in order: NPYLR7 ag | NPYLR7 ag max-min
O=c1c2nnn(-c3ccc(Br)cc3)c2ncn1Cc1ccc(C(F)(F)F)cc1
→ -5 | -7
Cc1ccc(S(=O)(=O)N2CCN(S(=O)(=O)N3CCOCC3)CC2)c(C)c1
→ 10 | 7
Cc1cc(NC(=O)C(C)S(=O)Cc2ccc(Cl)s2)no1 (stereo not given)
→ 5 | -2
CCCCOC(=O)CCc1n[nH]c(=O)[nH]c1=O
→ 5 | 6
N#Cc1ccc(C(=O)N2CCOC(COCc3c(Cl)cccc3Cl)C2)c(F)c1 (stereo not given)
→ 16 | 8
O=C1NC(=S)N/C1=C/c1cccc(Oc2ccccc2)c1
→ -3 | -4
Cc1ccc(N2C=N/C(=C/N(C)C)C2=O)cc1
→ -1 | 9
CCn1cnnc1CCNc1ccccc1S(=O)(=O)C(F)(F)F
→ 6 | 5
Cc1ccc(N2N=C(Br)CC2C(=O)O)c(Br)c1 (stereo not given)
→ -1 | 0
CC(CNC(=O)CN(C)c1ccccc1)c1ccccc1 (stereo not given)
→ 4 | 22
O=C(Nc1ccc(Nc2ccccc2)nc1)c1ccccc1C1CCNC1 (stereo not given)
→ 2 | 2
CCN(CC)C(=O)Cn1cc(C(=O)NCCCn2ccc3ccccc32)nn1
→ 20 | 22
O=C(CSc1nc(=O)n(CCO)c2c1CCC2)NCc1ccccc1
→ -11 | -16
O=C1CN(Cc2csc(COc3ccc(Cl)cc3)n2)CCN1
→ -2 | -1
COc1cc(/C=N\NC(=O)CSc2nnc(-c3ccccc3)n2-c2ccccc2)ccc1OCc1ccccc1
→ 1 | -6
O=C(CNC1CC1)N(Cc1ccc2c(c1)OCO2)Cc1cccs1
→ 2 | 2
CC(C)(C)c1ccc(/C=C2\SC(=S)NC2=O)cc1
→ -11 | -12
Cc1c(Cl)cccc1NC(=O)NCCn1ncccc1=O
→ -6 | -17
CC(C)N(CCNC1=NCCCCC1)C(C)C
→ -4 | -6
O=C1NCC(=O)N2CCN(C(=O)c3ccc4cccc(F)c4n3)CC12 (stereo not given)
→ 11 | 9
CCSc1nnc(NC(=O)c2cc3c(=O)n4cccc(C)c4nc3s2)s1
→ 6 | 2
O=C(/C=C/c1ccccc1F)Nc1ccc(Cl)cn1
→ 5 | 2
Fc1cccc(Cl)c1Cn1ccnc1CNC1CC1
→ -4 | 14
CCNC(=O)NC(=O)CN1C(=O)NC2(CCC(C)CC2)C1=O (stereo not given)
→ 2 | 10
COC(=O)c1cc(CN2CCN(c3cc(C)cc(C)c3)C(=O)C2)cs1
→ 6 | 6
COc1ccc(-c2nccn2CCc2c[nH]c3ccccc23)cc1O
→ 13 | -3
CN(C)S(=O)(=O)c1ccc(C(=O)NCCn2ncc3c(=O)n(Cc4ccccc4F)cnc32)cc1
→ 0 | -4
O=C(Nc1ccc(C2SCC(=O)N2c2ccc3c(c2)OCCO3)cc1)c1ccc(F)cc1 (stereo not given)
→ 11 | 7
COc1cccc(-c2nc(OCC(C)C)nn2-c2cccc(NC(=O)c3ccc(C(F)(F)F)cc3)c2)c1
→ -2 | 1
COc1ccc2c(c1)c1c3n2CCN(Cc2ccccc2)C3=[N+](C)CC1
→ 2 | 1
Cc1ccc(NC(=O)CS(=O)Cc2cccc(F)c2)cc1 (stereo not given)
→ -4 | -5
C=CCN(Cc1cccc(F)c1)Cc1cccn1Cc1cccc(C(F)(F)F)c1
→ 26 | 27
CCn1c(-c2ccco2)n[nH]c1=S
→ 5 | 3
CC(O)(CNC(=O)c1ccc(F)c(F)c1)c1cccs1 (stereo not given)
→ 7 | 2
COc1ccc(C)c2sc(N(CCN3CCOCC3)C(=O)c3ccc(C#N)cc3)nc12
→ 7 | 0
COc1cc(Cn2c(=O)n(Cc3ccccn3)c(=O)c3ncccc32)cc(OC)c1
→ 4 | 0
O=C(NCc1ccco1)c1cc(=O)c(OCc2ccccc2)co1
→ -2 | -4
Nc1c(C(=O)Nc2ccc(F)cc2)sc2[nH]c(=O)c(C(=O)O)cc12
→ -7 | -13
O=C(CCCNC(=O)C12CC3CC(CC(C3)C1)C2)Nc1cccc(Cl)c1Cl
→ 0 | -1
Fc1ccccc1-n1cc(-c2ccnc(NCc3ccon3)n2)cn1
→ -1 | -6
Cc1cccc(C)c1NC(=O)Cn1nc(-c2ccccc2)c2sc(N3CCCC3)nc2c1=O
→ -3 | -5
CN1CCCC1CCNc1nccc(CCC(F)(F)F)n1 (stereo not given)
→ -1 | -10
O=c1c(Oc2ccc(F)cc2)c(C(F)(F)F)oc2cc(O)ccc12
→ 0 | -11
CC(C)[C@H](Nc1nc(C2CCCC2)nc2c1cnn2C)C(N)=O
→ 0 | -9
COCCCN(CC(=O)N(CCc1c[nH]c2ccccc12)Cc1ccc(OC)c(OC)c1)C(=O)c1cccc([N+](=O)[O-])c1
→ 27 | 22
CCN(CCCNc1cncc(Br)c1)S(C)(=O)=O
→ 1 | 0
NC(=O)c1ccc(N2CCCCC2)c(NC(=O)C2CC2)c1
→ 6 | 3
CCCn1ncc(C(=O)NC2CCCN(Cc3cccc(OC)c3)C2)c1C (stereo not given)
→ 5 | 3
CC(C)c1nccn1C(C)C(=O)N1CCC(Oc2ncccn2)CC1 (stereo not given)
→ -1 | 4
O[C@@H]1CC[C@@H]2C[C@H]1[C@@H](O)CN2Cc1ccc(-c2ccccc2)cc1
→ 10 | 13
CCc1nnc(-c2cc3ccccc3n2CC(=O)Nc2ccccc2C(F)(F)F)o1
→ 2 | 1
Cn1ncnc1CN(c1cccc(Br)c1)S(C)(=O)=O
→ 6 | -16
COc1cccc(/C=C(/Cl)c2nc3ccccc3c(=O)[nH]2)c1
→ 11 | 3
O=S(=O)(CCO)CCOC1CCCCCC1
→ -3 | -10
CCC(C)NC(=O)c1cc(-c2cccc(OC)c2)nc2cc(-c3ccccc3)nn12 (stereo not given)
→ 10 | 7
CC(C)NC(=O)Nc1ccc(N(C)C)c(CN(CC2CCCO2)S(=O)(=O)c2cccc(Cl)c2)c1 (stereo not given)
→ -5 | 6
CCc1ccc(NC(=O)N(C)C(C)c2nc3ccccc3c(=O)n2-c2cc(OC)cc(OC)c2Br)cc1 (stereo not given)
→ 14 | 15
CCc1nc(SCC(=O)N2CC[C@@H](c3sccc3C)[C@H](O)C2)n[nH]1
→ -4 | -7
CCOC(=O)c1cn[nH]c1S(=O)(=O)Nc1cccc(SC)c1
→ 14 | 8
O=C(Nc1ccc(-c2nc3ccccc3o2)cc1)C1CCN(C(=O)C2CCCCO2)CC1 (stereo not given)
→ 13 | 8

Full records as entered above.
Shown for COCCCN(CC(=O)N(CCc1c[nH]c2ccccc12)Cc1ccc(OC)c(OC)c1)C(=O)c1cccc([N+](=O)[O-])c1 = NPYLR7 ag: 27; NPYLR7 ag max-min: 22
Shown for CC(C)[C@H](Nc1nc(C2CCCC2)nc2c1cnn2C)C(N)=O = NPYLR7 ag: 0; NPYLR7 ag max-min: -9

Next part:
Screens in order: NPYLR7 ag | NPYLR7 ag max-min
CCCCCCCOc1ccc(NC(=O)N2CCC[C@H]2C(=O)N2CCC(C(=O)N3CCCCC3)CC2)cc1
→ 6 | 2
Cc1nnsc1CNC(=O)CC(c1ccccc1)c1ccc(F)cc1 (stereo not given)
→ 4 | 30
COc1ccc(C(=O)Nc2c3c(nn2-c2ccccc2C)CS(=O)C3)cc1 (stereo not given)
→ 8 | 6
O=C(C=Cc1cc2c(cc1[N+](=O)[O-])OCO2)NCc1ccccc1
→ 5 | 1
Clc1ccc(C[C@@H]2CC[C@H](CN3CCOCC3)O2)cc1
→ -5 | -5
CCOC(=O)c1[nH]c2ccccc2c1NC(=O)c1c(OCC)ccc2ccccc12
→ 0 | 13
CN(C)CCCNc1cc(C(C)(C)C)nc2c(-c3ccccc3)cnn12
→ -3 | 6
Cc1cc(C(=O)N2CCN(C3=NS(=O)(=O)c4ccccc43)CC2)ccc1[N+](=O)[O-]
→ 9 | 1
COc1cc(C)sc1C(=O)N1CCNCC1C(=O)NC1CC1 (stereo not given)
→ 0 | -2
CN(C)CCN(Cc1cc(NC(=O)C2CCCC2)ccc1N(C)C)C(=O)c1ccc(F)cc1
→ 15 | 25
CC(=O)Nc1ccc(NC(=O)CSc2ccccc2[N+](=O)[O-])cc1
→ -6 | -10
COc1cccc(CSc2nnc(CNC(=O)Nc3cccc(OC)c3)n2-c2cc(Cl)ccc2Cl)c1
→ -3 | 6
C#CCn1c(CSc2ccccc2)nc2ccccc21
→ -1 | -1
Cc1ccc(NC(=O)C(NCCC(=O)N2CCCC2)c2ccccc2)cc1 (stereo not given)
→ 11 | 7
CCCn1ccnc1CN1CCCN(c2ccnc(C)c2)CC1
→ -10 | -14
Cc1ccc2nc(CN(C)Cc3cnc(C)[nH]3)[nH]c2c1
→ 7 | 6
O=C(NNC(=O)C1CCOC1)c1ccc(COc2ccc(Cl)cc2)cc1 (stereo not given)
→ 23 | 25
CN(C(=O)c1ccn(-c2ccccc2Cl)n1)C1CCC(CO)CC1 (stereo not given)
→ 8 | 4
COc1cc(Nc2cnc3ccccc3n2)ccc1N1CCCC1=O
→ -3 | 1
COC(=O)c1c(NC(=O)Cn2cnc([N+](=O)[O-])n2)sc2c1CCC(C)C2 (stereo not given)
→ -11 | -18
FC(F)(F)CN1CCN(c2nc(-c3cccnc3)nc3ccccc23)CC1
→ 11 | 3
CC(C)(C)c1ccc(-n2c(=O)[nH]c3c(C(N)=O)nc(-c4ccc(Cl)cc4)nc32)cc1
→ -6 | -9
CN1CCN(C(=O)Oc2c3nccnc3c(O)n2-c2ccc(Cl)cn2)CC1
→ -2&-7&-5 | -7&-12&-12
COc1ccc(Cn2c(-c3cccc(OCc4ccccc4)c3)nc3ccccc3c2=O)c(OC)c1
→ 18 | 11
COC(=O)c1cc(C2CC2)nc2c1c(-c1ccccc1)nn2C1CCS(=O)(=O)C1 (stereo not given)
→ 12 | 6
CC(CCN1CCC(Cc2nnc(CO)n2C)CC1)c1ccccc1 (stereo not given)
→ 18 | 16
O=C(CSc1nc(=O)n(CCN2CCOCC2)c2c1CCCC2)Nc1nccs1
→ -2 | 6
Cc1noc(C)c1CC1(C)C(=O)Nc2c(Cl)cccc21 (stereo not given)
→ 1 | 1
O=C(NC1(c2cccc(Br)c2)CCOCC1)c1cnc2ccccc2n1
→ 13 | 11
CCOC(=O)c1c(N)sc(C(=O)NC2CCCCC2)c1C
→ -4 | -8

Following part.
Molecule | NPYLR7 ag | NPYLR7 ag max-min
Cc1c(S(=O)(=O)N2CC(C)CC(C)C2)c(=O)n(C)c(=O)n1C (stereo not given) | 0 | 0
NC1CCCN(C(=O)Cn2nc(-c3ccccc3)c3ccccc3c2=O)CC1 (stereo not given) | 3 | 3
O=C(NCCN1CCCCC1)c1ccc(N2CCCC2c2cccnc2)nc1 (stereo not given) | 4 | 7
CN(Cc1ccc2c(c1)OCCO2)Cc1cn2ccccc2c1C#N | 3 | -1
COc1ccccc1CN1CCn2nc(C(=O)NCC3CCCO3)cc2C1=O (stereo not given) | 18 | 17
CCCCc1ccc(C(=O)N2[C@@H]3CC[C@H]2CNC(=O)C3)nc1 | 13 | 6
CCOC(=O)c1c(SC(CC)C(=O)O)nc(=O)[nH]c1C (stereo not given) | 5 | 10
O=C(NNc1nc(-c2ccccc2)c2cc(Br)ccc2n1)c1c(Cl)c(Cl)c(Cl)c(Cl)c1Cl | -7 | 2
Cc1nc(C)c(OCc2nc(CCc3ccccc3)no2)c(C)n1 | 12 | -1
COC(=O)CN(C)c1nccc(C2CCCC2)n1 | 19 | 13
CCOC1CCN(C(=O)c2sc(NC(=O)C(C)(C)C)cc2C)CC1 | 2 | 0
CC(C)(C)C(=O)N1CCN(c2ccc(-n3cccn3)nn2)CC1 | 8 | 5
Cc1nn2c(SCC(N)=O)cc(C(C)(C)C)nc2c1-c1ccc(Cl)cc1 | 3 | 3
O=c1ccc(-c2ccco2)nn1CCCNS(=O)(=O)c1ccc2c(c1)CCCC2 | 2 | 1
Cc1ccsc1C1CC(c2cccs2)=NN1S(C)(=O)=O (stereo not given) | 7 | 7
Cc1ccc(S(=O)(=O)NC(=O)C2(C)CCN2C(=O)c2ccccc2)cc1 (stereo not given) | -1 | -3
COC(=O)c1ccc(C2C3=C(CC(C)(C)CC3=O)OC3=C2C(=O)CC(C)(C)C3)cc1 | 15 | 15
CCn1cc(CN2CCC(CNC(=O)c3cnccc3C)C2)cn1 (stereo not given) | 16 | 14
COc1ccc2c(c1)CCN(S(=O)(=O)CCNC(=O)Cc1cccc(C)c1)C2 | 8 | 3
CCCCn1c(CN2CCc3cc(SC)ccc3C2)cnc1S(=O)(=O)CC | 3 | -1
O=C(Nc1ccc(-c2ccn[nH]2)cc1)C1CCCN(Cc2cccc(-n3cccn3)c2)C1 (stereo not given) | -7&10 | -6&-2
COc1ccc(C(=O)Nc2ccnn2C2CCN(C(=O)CCc3ccccc3)CC2)cc1 | -1 | -3
CC(C)(C)c1cc(NC(=O)c2ccc(F)c(C(F)(F)F)c2)n(-c2cccc(F)c2)n1 | 21 | 9
COC(=O)C1CCCCN1C(=O)c1oc2ccc(C)cc2c1C (stereo not given) | -5 | -7
Cn1cnnc1SCc1csc(-c2c(F)cccc2F)n1 | 5 | 3
CCCNC(=O)CNC(=O)c1cccc(CN2C(=O)c3ccccc3C2=O)c1 | 7 | 9
O=C(c1cc(-c2ccccc2Cl)nc2cc(-c3ccccc3)nn12)N1CCN(c2ccccc2F)CC1 | 10 | 15
Cc1ccc(N2NC(C(=O)N(C)Cc3ccco3)=NCC2=O)cc1 | 6 | 5
O=C(C1=C(O)C(=O)N(CCCn2ccnc2)C1c1cccc(Br)c1)c1cccs1 (stereo not given) | 5 | 4

Filtered by structure: the entries above containing a COOH group
Molecule | NPYLR7 ag | NPYLR7 ag max-min
Cc1ccc(N2N=C(Br)CC2C(=O)O)c(Br)c1 (stereo not given) | -1 | 0
Nc1c(C(=O)Nc2ccc(F)cc2)sc2[nH]c(=O)c(C(=O)O)cc12 | -7 | -13
CCOC(=O)c1c(SC(CC)C(=O)O)nc(=O)[nH]c1C (stereo not given) | 5 | 10
